Compound activity: PubChem BioAssay, several laboratories
HNF4A DNA FP = change in binding of human HNF4 alpha to DNA; activity change, % at 10 µM; HNF4a-FITC DNA binding, fluorescence polarization, 1 h; P41235; actives 0.3% (n = 360,000); in the data active = activity change above about 30%, passing the limit was not always enough;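 also: controls were the assay level and a saturating level of protein; the project sought stronger binding though the title names inhibitors; some compounds called inactive have numbers as strong as hits; positive values seem to mean higher polarization but the record does not say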
Ecoli rRNA inh = inhibitors of bacterial rRNA selective over humanized ribosomes; E. coli WT GFP vs humanized-ribosome RFP mutants, fluorescence, 24 h; active compounds read low; DMSO median 0, no signal -100; GFP signal change (wild-type ribosome), % (test concentration not listed); actives 1.6% (n = 350,000); AID 720706;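 active = significant combined selectivity score with lowered wild-type GFP, culture density cut under 30%, mutant RFP and density less affected; inactive = any of these conditions unmet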; also: one replicate is shown; some compounds called inactive have numbers as strong as hits
B2AR ag = human beta-2 adrenergic receptor agonism by FAP; P07550; Am2.2-beta2AR cells, FAP receptor internalization, flow cytometry; reference of the scale not given here; response, % (concentration not given with the values); actives 0.43% (n = 340,000); AID 504454;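 active = response above a set limit, near 3 SD of response in nonfluorescent compounds, cut at about 42% in these data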;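 also: stock transfer was 100 nL into about 11 µL; a reference agonist was the positive control; negative values mostly stem from fluorescent compounds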
Target sequence (P07550 whole entry, looked up): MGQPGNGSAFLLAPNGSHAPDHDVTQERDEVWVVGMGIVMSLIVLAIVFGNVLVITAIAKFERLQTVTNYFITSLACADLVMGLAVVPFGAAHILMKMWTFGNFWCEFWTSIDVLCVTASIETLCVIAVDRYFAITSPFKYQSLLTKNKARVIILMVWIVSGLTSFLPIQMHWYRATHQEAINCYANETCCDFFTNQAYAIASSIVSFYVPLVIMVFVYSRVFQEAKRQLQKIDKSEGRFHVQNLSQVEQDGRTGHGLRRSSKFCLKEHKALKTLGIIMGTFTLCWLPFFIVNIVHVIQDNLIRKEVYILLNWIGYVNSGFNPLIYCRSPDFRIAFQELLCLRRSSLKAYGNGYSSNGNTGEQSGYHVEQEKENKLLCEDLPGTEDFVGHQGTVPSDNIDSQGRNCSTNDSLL
FGF22 binding = FGF22 (human) thermal shift binding | Q9HCT0 | recombinant FGF22 thermal shift, SYPRO orange fluorescence; percent of sucrose octasulfate shift, DMSO zero | calls only at 9.99 µM | actives 1.5% (n = 340,000) | AID 651658;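 active = melting point raised past a set limit in the mean and every replicate; inconclusive = no clear call; three in four hits are not shown here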
Target sequence (Q9HCT0 whole entry, looked up): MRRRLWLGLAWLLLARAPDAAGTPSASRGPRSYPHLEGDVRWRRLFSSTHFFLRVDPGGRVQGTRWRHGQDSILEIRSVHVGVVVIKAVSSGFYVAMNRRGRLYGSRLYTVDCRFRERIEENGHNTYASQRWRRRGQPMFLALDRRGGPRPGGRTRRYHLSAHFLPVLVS
E coli growth = E. coli growth inhibition. Escherichia coli growth, OD600, 23 h; active compounds read low. OD600 absorbance (concentration not given with the values). actives 0.21% (n = 330,000). AID 1053175;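 active = OD600 absorbance below the run mean of sample wells minus 3.6 SD, in any replicate, cut at about 0.56 in these data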;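 also: stock transfer was 300 nL into about 60 µL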
UCH37 DUB inh = inhibitors of human deubiquitinating enzyme UCH37; actives 0.33% (n = 330,000); inhibition, % (test concentration not listed); AID 588478; purified proteasome/UCH37, Ub-AMC cleavage fluorescence;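 active = mean of two replicates above 20%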;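 also: 0% = compound-free wells with enzyme and 100% = wells lacking proteasome; stock transfer was 100 nL into about 20 µL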
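Signal – fluorescence, ex 355 nm, em 460 nm · System – Proteasome-bound UCH37 · Input – 0.15 nM proteasome as dispensed · Timing – 30 min preincubation with enzyme, 25 min cleavage at room temperature · Read-out basis – percent inhibition of cleavage signal versus uninhibited and no-proteasome wells · Medium – Tris-HCl pH 7.4 with ATP-MgCl2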
ALR inh = blocks human ALR sulfhydryl oxidase activity; P55789; purified ALR, DTT oxidation, H2O2 HRP-luminol luminescence; inhibition, % (test concentration not listed); actives 3.8% (n = 290,000);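 active = mean and each replicate at 75% or more; inconclusive = only one of the two met; inactive = neither met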;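 also: stock transfer was 7.5 nL into about 7.5 µL; 0% = neutral wells and 100% = wells with inactivated enzyme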
Target sequence (P55789 whole entry, looked up): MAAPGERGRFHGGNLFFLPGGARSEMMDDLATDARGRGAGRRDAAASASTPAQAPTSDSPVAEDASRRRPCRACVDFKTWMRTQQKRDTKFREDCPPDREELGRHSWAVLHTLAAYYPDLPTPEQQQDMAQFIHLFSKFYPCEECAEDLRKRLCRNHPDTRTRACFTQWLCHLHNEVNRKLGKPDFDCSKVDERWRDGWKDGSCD
Ecoli rRNA inh OD600 = recorded beside Ecoli rRNA inh, whose call it bears; OD600 change, %; measured here: OD600 growth;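 optical density of the mix in the first replicate; 0 = DMSO median and -100 = no signal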
Ecoli rRNA inh RFP = second read-out of Ecoli rRNA inh, no call of its own (marks repeat the call); RFP signal change, %; measured here: RFP humanized mutant strains;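 first replicate; 0 = DMSO median and -100 = no signal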
* = called active by the depositor; i = inactive; ? = inconclusive; · = not tested or not shown. An excerpt (hit frequency here may not be typical).

SMILES	HNF4A DNA FP	Ecoli rRNA inh	Ecoli rRNA inh OD600	Ecoli rRNA inh RFP	B2AR ag	FGF22 binding	E coli growth	UCH37 DUB inh	ALR inh
CCCNC(=O)C1(C)CCN(Cc2cccc(OC(=O)c3ccccc3)c2)C1 (configuration not stated)	-3.0	8	14	1.7	·	i	·	·	·
CCCCCCn1c(=O)[nH]c2nc3cc(N)ccc3nc2c1=O	·	·	·	·	·	·	0.72	8.6	-23
CC1Sc2ccc(S(=O)(=O)N3CCC(C(=O)Nc4ccc(Cl)cc4)CC3)cc2NC1=O (configuration not stated)	41*	2	5	6.5	3	i	0.71	1.8	-5
Cc1c(C=O)c2cc(OCc3ccccc3)ccc2n1C	-2.3	3	20	6.8	-1	i	0.69	0.0	-1
FC(F)(F)c1cccc(NC(=S)NCCN2CCOCC2)c1	-1.9	6	6	-6.1	2	i	0.68	-1.1	3
CN(Cc1ccccc1)C(=O)c1cccc(NC(=O)Cc2cccc(NC(=O)C3CCN(C(=O)C4CC4)CC3)c2)c1	0.2	·	·	·	-6	i	0.64	0.0	·
COc1cccc(N2CC(C(=O)Nc3nnc(SCC(=O)NCc4ccco4)s3)CC2=O)c1 (configuration not stated)	-2.9	0	-1	-0.9	36	i	0.65	0.9	59
CCOC(=O)C1CCN(c2ncnc3c2nnn3Cc2ccccc2Cl)CC1	-1.2	-20*	-6.0*	2.8*	15	i	0.7	1.4	-6
CCOC1=C2[C@H](c3ccc(CC)cc3)N(S(=O)(=O)c3ccc(C)cc3)C[C@H]2C(C#N)(C#N)C(C#N)(C#N)C1	7.0	-19	-35	5.2	·	i	·	·	·
Cn1c(C=O)c(-c2ccc3cc[nH]c3c2)c2ccccc21	3.3	7	0	18	-2	i	0.82	5.3	-6
O=C1CC(c2ccccc2)C(c2ccccc2)=NN1 (configuration not stated)	1.1	-3	-14	-0.4	3	i	0.73	4.9	·
O=C(NCCN1CCOCC1)c1c(O)nc2sccn2c1=O	-0.8	10	16	-2.5	6	i	0.67	3.5	·
O=C1OC(COc2ccc(Br)cc2)CN1c1ccccc1 (configuration not stated)	2.2	5	6	-1.5	-1	i	0.69	3.4	-19
COc1cccc2c1Oc1ncccc1N(C(=O)CCC(=O)NCc1ccccc1)C2	1.2	9	7	-0.8	2	i	0.7	0.5	-1
CCN(CC)C(=O)Cn1nc(C)c2ccccc2c1=O	-3.2	·	·	·	1	·	0.76	4.7	1

Gathered by group: those above with a Cl atom
SMILES	HNF4A DNA FP	Ecoli rRNA inh	Ecoli rRNA inh OD600	Ecoli rRNA inh RFP	B2AR ag	FGF22 binding	E coli growth	UCH37 DUB inh	ALR inh
CC1Sc2ccc(S(=O)(=O)N3CCC(C(=O)Nc4ccc(Cl)cc4)CC3)cc2NC1=O (configuration not stated)	41*	2	5	6.5	3	i	0.71	1.8	-5
CCOC(=O)C1CCN(c2ncnc3c2nnn3Cc2ccccc2Cl)CC1	-1.2	-20*	-6.0*	2.8*	15	i	0.7	1.4	-6

The list continues:
SMILES	HNF4A DNA FP	Ecoli rRNA inh	Ecoli rRNA inh OD600	Ecoli rRNA inh RFP	B2AR ag	FGF22 binding	E coli growth	UCH37 DUB inh	ALR inh
COc1ccc(-c2csc(NC(=O)Cc3ccccc3)n2)cc1OC	0.5	-17	-35	18	7	i	0.69	2.1	8
COc1ccccc1CNCc1cc(Br)ccc1OC	3.8	5	-12	1.8	5	i	0.64	3.9	-1
COc1ccc(S(=O)(=O)N(CCCN2CCOCC2)Cc2cccc3ccccc23)cc1	1.1	·	·	·	-3	·	0.67	0.6	-19
COc1ccccc1-c1nc(-c2ccc(Br)o2)no1	2.0	5	8	1.4	-10	i	0.72	3.8	50
Cc1ccc(C(=O)N2CCN(c3ccc([N+](=O)[O-])c(NCc4cccnc4)c3)CC2)cc1	-1.9	-4	-4	6.5	7	i	0.69	8.0	-18
CCN1CCN(S(=O)(=O)c2ccc(Cl)c(C(=O)N(C)Cc3ccc(Cl)cc3Cl)c2)CC1	5.8	1	-5	15	5	i	0.68	0.6	-9
COc1cc(Br)c(CCNC(=O)c2ccco2)cc1OC	-0.3	6	3	-2.0	-14	i	0.73	-2.3	-3
O=C(CCc1nnc(CCCCc2ccccc2)o1)NC(c1cccnc1)C(F)(F)F (configuration not stated)	4.2	-18	-20	-0.2	-2	i	0.72	1.5	-6
CCCCCn1c(SCC(=O)OCC)nc2cc(C(=O)N3CCC(C(N)=O)CC3)ccc2c1=O	0.1	·	·	·	-13	·	0.73	1.0	1
Cc1cc(OC(C)C(=O)NC(Cc2c[nH]c3ccc(O)cc23)C(=O)O)c2c(C)cc(=O)oc2c1 (configuration not stated)	-2.1	·	·	·	-2	i	0.69	-8.6	-11
O=C1OC(c2ccccc2)Sc2ccccc21 (configuration not stated)	0.1	26	-4	1.3	-1	i	0.69	4.8	·
CSc1cccc(CN2CCCC(CNC(=O)c3ccc(F)cc3)C2)c1 (configuration not stated)	0.2	1	-9	-5.1	-4	i	0.67	1.1	-1
O=C(c1nn(-c2ccccc2)c(=O)c2ccccc12)N1CCN(c2ncccn2)CC1	-0.9	12	14	1.4	-28	·	0.7	2.2	-5
COc1cccc(OCc2nnc(SCC(=O)NCc3ccco3)n2C)c1	-0.8	·	·	·	12	·	0.69	1.1	-2
COc1ccccc1-c1nnc(SCC(=O)Nc2oc(C)c3c(C)n[nH]c(=O)c23)n1C	3.3	-1	2	-3.4	-15	i	0.71	5.8	-14
N#Cc1cc(NC(=O)c2ccc(Cl)cc2)ccc1Sc1ccccc1	0.5	-36	-57	1.0	·	i	·	·	·
O=C(O)CN1c2cccc3cccc(c23)S1(=O)=O	-2.3	9	12	3.2	-1	i	0.7	-106	-19
CCOC(=O)c1ccc(NC(=O)C(=O)NCC2CCCO2)cc1 (configuration not stated)	1.8	·	·	·	3	·	0.71	0.4	·
Cc1c(/C=C/C(=O)c2cccs2)cnn1C	-0.3	·	·	·	-18	·	0.69	-70	1
Cc1nc(-c2nnc(SCC(=O)Nc3cc(C(F)(F)F)cc(C(F)(F)F)c3)n2C)cs1	5.1	5	4	1.6	-7	i	0.66	1.7	-4
CCN(CC)CCN(C(=O)c1c(F)cccc1F)c1nc2cc(C)cc(C)c2s1	-3.4	-31*	-25*	-12*	8	i	0.66	0.8	15
CCCNC(=O)Cn1cnc2sc(C(=O)NCCCN3CCOCC3)c(C)c2c1=O	-0.3	13	4	0.2	2	i	0.7	3.0	-4
CC(C)c1cc(NCc2ccccn2)n2c(nc3ccccc32)c1C#N	-2.5	4	-1	-1.6	-7	i	0.72	-325	7
COCCNC(=O)CN1CCN(Cc2cccc(Cl)c2)C1=O	0.5	6	6	-1.6	7	i	0.71	2.6	·
CCOc1ccc(S(=O)(=O)Nc2cccc(C(=O)N3CCN(c4ccccn4)CC3)c2)cc1	2.1	-6	-18	3.6	·	i	·	·	·
O=C(O)COc1ccc(/C=C/C(=O)c2ccc3ccccc3c2)cc1	0.3	·	·	·	6	·	0.67	-17	54
COc1ccc(-n2c(SC(CN3CCCCC3)CN3CCCC3=O)nc3ccccc3c2=O)cc1 (configuration not stated)	4.6	·	·	·	-3	·	0.69	1.3	-8
COc1ccc(NC(=O)CN2CCN(C3c4ccccc4-c4ccccc43)CC2)c(OC)c1	-0.2	·	·	·	-10	·	0.78	2.7	·
N#Cc1nc(-c2ccccc2F)oc1N1CCN(C(=O)c2ccco2)CC1	-1.4	13	18	0.1	1	i	0.66	-95	-4
O=c1[nH]c(C2CCN(S(=O)(=O)c3ccc4c(c3)OCCO4)CC2)nc2c1nnn2Cc1cccc(F)c1	-0.8	-7	-13	3.3	14	i	0.67	3.2	-4
CCN(CCCNC(=O)CN(C)S(=O)(=O)c1ccc2c(c1)CCC(=O)N2)c1cccc(C)c1	2.5	2	11	-1.6	4	·	0.7	1.5	96*
O=C(CCNS(=O)(=O)c1cccc2nsnc12)NC1CCN(Cc2ccccc2)CC1	-0.1	·	·	·	2	·	0.71	2.7	-7
O=C(Nc1cccc(-c2nc3ncccc3o2)c1)c1ccccc1	9.5	12	29	6.9	-4	i	0.65	2.7	1
CC(/C=N/n1c(-c2ccccc2)n[nH]c1=S)=C\c1ccco1	-2.3	·	·	·	2	·	·	·	?
Cc1cc(C(=O)N2CCc3ccccc3C2)on1	4.7	11	13	3.6	5	i	0.68	0.7	-2
COc1ccc(N2CCN(C(=O)COC(=O)c3ccccc3OCc3ccc(F)cc3)CC2)cc1	0.7	-1	-4	34	1	i	0.69	6.4	24
CCC1C(=NO)C(CC)C(c2ccccc2)NC1c1ccccc1 (configuration not stated)	0.0	-27	-48	-9.5	6	i	0.72	7.9	3
COCCCNC(=S)N(CCO)Cc1cc2cc3c(cc2[nH]c1=O)OCCO3	0.0	12	12	0.6	1	i	0.69	-107	1
Cc1noc(C(=O)Nc2c(C)n(C)n(-c3ccccc3)c2=O)c1Cl	4.1	5	11	-0.2	0	i	0.69	3.3	2
COc1cc(NC(=O)c2cccs2)ccc1NC(=O)c1cc2ccccc2o1	2.8	0	13	-2.0	-2	i	0.72	-165	·
Nc1ccccc1S(=O)(=O)c1ccccc1N	-2.4	9	9	0.9	-1	i	0.71	-2.7	1
O=C(CCn1cnnn1)Nc1ccccc1	2.1	14	6	1.9	7	i	0.68	2.5	·
N#CC1=C2N=C(N)c3ccccc3N2C2=C(C(=O)CCC2)C1c1ccc(Cl)cc1 (configuration not stated)	0.7	-21	-37	0.6	4	i	0.75	1.2	-1
CCOC(=O)c1c(NC(=S)NCC2CCCO2)sc(C)c1C (configuration not stated)	0.0	3	2	-3.5	-11	i	0.7	3.8	9
CC(=O)Nc1ccc2c(c1)C(=O)N(c1cccc(C)c1)C2=O	-0.5	18	17	2.5	4	i	0.66	-25	·
COc1ccc(CNC(=O)c2cc(COc3c(F)cccc3F)on2)cc1OC	1.8	6	-14	0.8	5	i	0.69	0.9	-26
CC1Sc2ccc(S(=O)(=O)CCC(=O)NC3CCCCCC3)cc2NC1=O (configuration not stated)	0.9	5	3	-1.2	0	i	0.66	-0.8	-3
CCCCN1CC(COCc2ccccc2)Oc2cccc(Oc3ccc(C)cc3)c2S1(=O)=O (configuration not stated)	0.9	3	15	-2.6	-3	i	·	·	·
Cc1cc(Br)ccc1NC(=O)CCSc1ccccc1	-1.4	·	·	·	-3	·	0.65	2.2	-4
Nc1ccccc1SC1CC(=O)N(c2ccc3c(c2)OCCO3)C1=O (configuration not stated)	-0.3	10	-3	1.8	3	i	0.64	0.5	-5
COc1cccc(-n2c(=O)c3ccccc3n3c(=S)[nH]nc23)c1	2.1	7	11	1.1	-2	i	0.72	5.2	3
COc1cc(C(=O)NC2CC(C)(C)Cc3c2cnn3-c2ccccc2)cc(OC)c1OC (configuration not stated)	-0.6	11	16	2.4	-4	i	·	·	1

One compound at a time (already shown).
CCCCN1CC(COCc2ccccc2)Oc2cccc(Oc3ccc(C)cc3)c2S1(=O)=O (configuration not stated) across the screens: HNF4A DNA FP: 0.9; Ecoli rRNA inh: 3; Ecoli rRNA inh OD600: 15; Ecoli rRNA inh RFP: -2.6; B2AR ag: -3; FGF22 binding: i; E coli growth: ·; UCH37 DUB inh: ·; ALR inh: ·
Nc1ccccc1SC1CC(=O)N(c2ccc3c(c2)OCCO3)C1=O (configuration not stated) across the screens: HNF4A DNA FP: -0.3; Ecoli rRNA inh: 10; Ecoli rRNA inh OD600: -3; Ecoli rRNA inh RFP: 1.8; B2AR ag: 3; FGF22 binding: i; E coli growth: 0.64; UCH37 DUB inh: 0.5; ALR inh: -5
